Screening data deposited in PubChem BioAssay by several laboratories.
BJeLR viability – kills HRASV12-expressing BJeLR cells; BJeLR (HRASV12) viability, CellTiter-Glo ATP luminescence, 48 h; reference of the scale not given here; 300,000 compounds, 0.17% hits; inhibition, % (no concentration beside the values);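 active = replicate mean above 50%; inconclusive = above 50% but judged a plate artefact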;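 note: 50 nL library stock added to about 25 µL; numbers are from one replicate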
Mtb hypoxia rep – reduces hypoxia-regulated biosensor signal in M. tuberculosis | M. tuberculosis hypoxia-regulated fluorescent reporter, fluorescence | fluorescence inhibition, % (concentration not given with the values) | 300,000 compounds, 0.1% hits;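 active = 35 to 45% if threefold the growth effect, above 45% if 1.5-fold the growth effect; inactive = the rest, general growth blockers included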;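 note: wells of about 50 µL received 100 nL stock; 0% = vehicle wells and 100% = reference inhibitor wells; whole bacteria with a GFP reporter of the hypoxia response; strong numbers were not always called active; many hits fall short of the cut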
PrP 5UTR inh – suppresses PrP 5' UTR mRNA reporter expression. cell-based PrP 5' UTR mRNA reporter, plate reader. inhibition, % (no concentration beside the values). 340,000 compounds, 0.35% hits. AID 488862;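 active = every replicate at 50% or more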;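 note: 0 = median of the neutral control wells; tested in H4 reporter cells; numbers are from one replicate; inactives centre near -14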
Sa RN4220 lethal – kills Staphylococcus aureus RN4220 | AID 1259311 | 330,000 compounds, 0.33% hits | S. aureus RN4220 growth, OD600, 16 h | inhibition, % (test concentration not listed);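 active = z-score of -3 or lower and OD600 up to 0.18 on both plates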;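 note: plate controls were untreated cells for no effect and reference antibiotic for full effect; stock transfer was 100 nL into about 80 µL; one replicate is shown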
ugtP null kill – kills S. aureus RN4220 lacking UgtP; 330,000 compounds, 0.54% hits; growth inhibition, % (no concentration beside the values); AID 1259309; S. aureus RN4220 ugtP deletion, OD600 growth, 16 h; some inactives read as strong as hits;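 active = z-score under -3 and OD600 up to 0.15 on both plates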;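 note: plate controls were untreated wells for no effect and antibiotic for full effect; wells of about 80 µL received 100 nL stock; the first replicate is given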
Autofluor counter – counter-screen for toxin protease inhibitors: compound fluorescence. compound autofluorescence counterscreen, microsphere flow cytometry; stronger effect = higher value. 360,000 compounds, 3.1% hits. fluorescence intensity (concentration not given with the values);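 active = at least 3 SD above the mean of all compounds, about 16000 in these data; inconclusive = too few beads counted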;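 note: 100 nL of 1 mM stock went into each well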
Mtb hypoxia rep growth – recorded beside Mtb hypoxia rep, whose call it bears; growth inhibition, %; measured here: M. tuberculosis growth (absorbance);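 0% = vehicle and 100% = reference antibiotic; read after six days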
Numbers without * were called inactive; ? = inconclusive; nt = not tested or not shown; & = joins results of further samples.

SMILES	BJeLR viability	Mtb hypoxia rep	Mtb hypoxia rep growth	PrP 5UTR inh	Sa RN4220 lethal	ugtP null kill	Autofluor counter
CCc1c(C)sc(NC(=S)N2CC(C)OC(C)C2)c1C(=O)OC (configuration not stated)	nt	-7	-2	-22	-4.6	14	5013
CCOc1ccc2cc(C3CC(c4ccco4)=NN3S(C)(=O)=O)c(Cl)nc2c1 (configuration not stated)	12	13	11	-21	-0.4	6	4769
O=C(NCc1ccccc1Cl)C1CCC(CNc2c(N3CCOCC3)c(=O)c2=O)CC1 (configuration not stated)	8	4	7	-19	4.0	9	3883
COc1cc2c(cc1OC)C(c1ccco1)CC(=O)N2 (configuration not stated)	4	7	8	-22	6.5	13	5628
COc1ccc(CCn2c(O)c(/C=N/NC(=O)c3ccncc3)c(=O)[nH]c2=O)cc1OC	0	-6	7	-19	2.4	3	1989
COc1ccc(-n2nnnc2SCC(=O)Nc2ccccc2F)cc1	-2	-1	-8	-5	2.5	9	3835
COc1ccc(N(Cc2cc(=O)[nH]c3ccccc23)C(=O)c2ccco2)cc1	-2	3	3	-9	5.7	0	20241*
COc1ccc(Br)cc1C=Nn1c(COc2ccccc2)n[nH]c1=S	nt	-11	7	nt	3.5	0	nt
COc1ccc(Cl)cc1NC(=O)COC(=O)c1cc(C)oc1C	nt	17	8	-9	3.4	-8	3678
CCOC(=O)N/N=C\C=C\c1ccco1	-4	nt	nt	-19	nt	nt	2114
N#CC(=Cc1ccc(N2CCOCC2)o1)C(=O)N1CCOCC1	nt	26	3	nt	4.7	3	nt
Cc1ccc(-c2cnc3c(Cl)c(C)nn3c2)cc1	21	5	2	2	6.7	6	3433
O=C(CSc1cccc[n+]1[O-])Nc1cc([N+](=O)[O-])ccc1Cl	-1	12	10	4	12	4	3983
CCCn1nnc(NC(=O)Cc2ccc(Cl)cc2)n1	3	-5	9	-12	4.8	7	10566
O=C1CCC(O)CCN1CCSc1ccccc1 (configuration not stated)	-3	2	3	-33	-0.1	1	3669
CC(OC(=O)c1cccc(S(=O)(=O)Nc2ccccc2F)c1)C(=O)NCc1ccc2c(c1)OCO2 (configuration not stated)	3	10	4	-19	6.6	5	2313
CCc1c(C)nc(SCC(N)=O)c(C#N)c1C	13	11	3	-17	1.3	7	5094
CCN1C(=NCc2ccc(OC)cc2)N[C@@H](c2ccccc2)C(C(=O)OC)=C1C	3	nt	nt	-24	nt	nt	3599
O=C(CSc1nnc2ccccn12)c1ccc(OC(F)F)cc1OC(F)F	3	15	24	-24	7.8	-5	8202
CO/N=C/CC(=O)c1ccc(-c2ccccc2)cc1	-7	nt	nt	-24	nt	nt	2259
CS(=O)(=O)N(CC(=O)Nc1ccc(S(=O)(=O)N2CCCC2)cc1)c1ccccc1F	-2	7	11	-14	4.2	5	2605
CCCCN1CC(=O)N2[C@H](c3ccc(OC)cc3)[C@@H]3C(=O)N(CC)C(=O)[C@@H]3[C@]2(Cc2ccccc2)C1=O	5	nt	nt	-26	nt	nt	3985
Cc1[nH]c2ccccc2c1CCCO	-3	5	-2	nt	2.4	9	nt
CC1CCCN(CCC(=O)Nc2ccccc2)C1 (configuration not stated)	3	-3	2	12	2.3	8	4448
O=C(NN=Cc1cccnc1)C12CC3CC(CC(C3)C1)C2	nt	-1	9	nt	2.1	1	nt
COc1ccc(-n2c(=S)[nH]c3cc(C(=O)Nc4ccc(F)cc4)ccc3c2=O)c(OC)c1	-2	-9	8	-7	-2.0	-4	2837
CCCN1CCN(C(=O)c2cc(COc3ccc4ncccc4c3)on2)CC1	20	-3	-4	7	3.0	-4	3567
Cc1nc2nc(SCC(=O)N3CCOCC3)nn2c(C)c1Cc1ccccc1	-6	6	13	-4	-2.6	-9	9249
CC(C)Cn1c(N)c(C(=O)COC(=O)CCc2nc3ccccc3c(=O)[nH]2)c(=O)n(C)c1=O	nt	-3	1	10	3.5	9	2850
CCCC1(CCC)NC(=O)N(CC(=O)Nc2ccc(Cl)c(S(=O)(=O)N3CCOCC3)c2)C1=O	nt	3	-4	-20	0.6	-4	4079
CCCCCCC(=O)N1CC=CC(c2ccc(OC)cc2)N(Cc2ccc(F)cc2)C(=O)C1 (configuration not stated)	nt	18	13	nt	1.4	-5	nt
Cc1cc(NC(=O)c2ccc(S(=O)(=O)N(C)C)cc2)no1	-1	14	12	-32	-0.5	-4	4156
Cc1nc2cc(C(=O)O)ccc2n1-c1ccccc1	4	7	2	-8	1.5	1	4515
COC1=CC(=O)OC(C=Cc2ccccc2)C1 (configuration not stated)	nt	1&0	11&-3	nt	5.1&2.8	-1&1	nt
O=S(=O)(CCc1ccccc1)CS(=O)(=O)CCc1ccccc1	nt	0	12	1	-5.2	-12	3698
COC(=O)Cc1cnc(NC(=O)CSc2nc(C(C)C)cc(=O)[nH]2)s1	-11	-9	3	-19	6.2	0	4098
NNC(=O)COc1ccccc1[N+](=O)[O-]	1	1	1	-6	3.8	10	3286
O=C(CSc1nc2ccccc2c(=O)n1CC1CCCO1)N1CCN(c2ccccc2)CC1 (configuration not stated)	1	1	6	-6	2.2	3	21377*
OCCN(Cc1ccccc1)Cc1ccc(Cl)cc1	-18	0	2	0	-2.1	-7	11407
CCOc1cccc(-c2c(C(=O)NN=Cc3ccc(Br)cc3)nnn2-c2nonc2N)c1	nt	-9	-4	nt	1.3	2	nt

Part of the list above, bar-delimited:
Molecule | BJeLR viability | Mtb hypoxia rep | Mtb hypoxia rep growth | PrP 5UTR inh | Sa RN4220 lethal | ugtP null kill | Autofluor counter
NNC(=O)COc1ccccc1[N+](=O)[O-] | 1 | 1 | 1 | -6 | 3.8 | 10 | 3286
CC(C)Cn1c(N)c(C(=O)COC(=O)CCc2nc3ccccc3c(=O)[nH]2)c(=O)n(C)c1=O | nt | -3 | 1 | 10 | 3.5 | 9 | 2850
Cc1cc(NC(=O)c2ccc(S(=O)(=O)N(C)C)cc2)no1 | -1 | 14 | 12 | -32 | -0.5 | -4 | 4156

Next compounds:
SMILES	BJeLR viability	Mtb hypoxia rep	Mtb hypoxia rep growth	PrP 5UTR inh	Sa RN4220 lethal	ugtP null kill	Autofluor counter
Cc1cc([N+](=O)[O-])nn1CC(=O)N1CCN(Cc2ccccc2)CC1	-1	-8	1	-12	4.7	6	4589
OC(COCc1ccccc1)CN1CCCCC1 (configuration not stated)	-6	-2	-9	-13	4.9	10	4448
CCOC(=O)c1sc(NC(=O)COC(=O)CNC(=O)C2CCCCC2)c(C(=O)OCC)c1C	-2	15	2	-7	1.0	4	2488
O=C(COC(=O)c1cc2ccccc2oc1=O)Nc1cccc(S(=O)(=O)N2CCCCCC2)c1	12	2	4	-54	6.7	10	1934
CN1C(=O)N(C)C(=O)C(CCc2ccncc2)(Cc2ccc3c(c2)OCO3)C1=O	11	24	17	-22	12	1	7673
O=C(NNC(=O)C1CCCCC1)c1ccco1	0	2	-1	-9	0.2	6	4663
c1ccc(CCNC2=NCCS2)cc1	-4	1	6	10	2.2	3	3711
Cn1c(C(=O)NC2CCCC2)cc2c(=O)n(C)c3ccccc3c21	-5	nt	nt	7	-1.7	8	4361
COc1ccc(NC(=O)C(=O)NCCN2CCN(C(=O)c3cccc(Br)c3)CC2)cc1	1	1	2	-27	-0.9	0	5514
O=C(O)CNC(=S)N(Cc1ccco1)Cc1ccccc1Cl	1	9	10	-9	3.0	-1	2708
O=C(NCC1CCCO1)C1c2ccccc2C(=O)N1Cc1ccc2c(c1)OCO2 (configuration not stated)	-2	nt	nt	5	5.8	0	2162
COc1ccc(C(CNC(=O)Cc2ccc(-c3ccccc3)cc2)N(C)C)cc1 (configuration not stated)	-2	13	3	-12	1.3	-7	4769
COc1ccc(Cl)cc1NC(=O)c1nnn(CC(=O)Nc2ccc(OC)c(OC)c2)c1N	5	-6	-3	-5	3.5	5	5323
CC(CN1CCCCC1)OC(=O)c1cccc(F)c1 (configuration not stated)	-7	-6	-10	-10	2.4	0	3512
O=C1CC(N(Cc2ccco2)C(=O)Nc2ccc(F)cc2)C(=O)N1c1ccc(F)cc1 (configuration not stated)	1	-1	4	-16	2.5	1	11084
CCn1cc(C(=O)N2CCN(c3ccc(OC)cc3)CC2)c2cc(OC)c(OC)cc2c1=O	4	6	7	-17	2.8	8	5291
Cc1ccc(C)c(NC(=O)CN2C(=O)COc3ccc(S(=O)(=O)N4CCCC4)cc32)c1	4	2	6	-15	2.1	7	5713
Cc1ccc(S(=O)(=O)NC(N)=NCCc2ccccc2)cc1C	4	6	5	-24	0.9	-7	2064
CCN(CC(=O)Nc1ccccc1C(F)(F)F)C(=O)CSCc1ccc(C)cc1	1	9	-1	-10	4.0	5	5694
COc1ccc(CC(=O)Nc2cccc(-c3nnc(-c4ccccc4)o3)c2)cc1OC	3	-7	0	-9	13	-15	4583
CCOc1cc2c(cc1OC)C(NC(=O)c1ccco1)CC2=O (configuration not stated)	7	-1	-4	nt	3.9	3	3925
COCc1cccc(N2C(=O)CC(C3C=C(C)C4C(=O)N(c5cccc(COC)c5)C(=O)C4C3)C2=O)c1 (configuration not stated)	-3	6	12	-12	2.1	6	4095
O=C(COc1ccccc1F)Nc1nnc(-c2ccncc2)s1	0	-3	2	-13	-4.4	-14	5917
CCOC(=O)N1CCc2c(sc(NC(=O)C3=COCCO3)c2C(N)=O)C1	-7	10	19	-7	6.1	10	5731
COc1ccc(C(=O)OCC(=O)NC(C)CCc2ccccc2)cc1OC (configuration not stated)	5	3	11	4	-0.4	-3	3614
CC(/C=N/n1c(-c2ccc(C)cc2)n[nH]c1=S)=C\c1ccco1	-2	nt	nt	-12	nt	nt	2726
CC(C)(C)C(=O)N1CCN(c2nc3ccc(Br)cc3s2)CC1	15	-1	9	-110	-0.5	-9	5638
CCOC(=O)c1[nH]ncc1CN1CCCC(C(=O)c2cccc(Cl)c2)C1 (configuration not stated)	0	6	3	-6	5.9	2	4353
Cc1c(NC(=O)Cn2ccc([N+](=O)[O-])n2)c(=O)n(-c2ccccc2)n1C	7	-1	-9	-3	1.9	2	10276
C=CCC1S/C(=N/N=Cc2cccs2)NC1=O (configuration not stated)	nt	3	-3	nt	4.7	-5	nt
Cc1ccc(CC2SC(=Nc3ccccc3)N(c3ccccc3)C2=O)cc1 (configuration not stated)	-1	12	11	14	-6.6	18	2424
Cc1ccc(N2C(=O)CC(Sc3nccc(C)n3)C2=O)cc1 (configuration not stated)	-12	-2	1	-29	9.7	7	3531
O=C(c1ccccc1F)N1CCN(S(=O)(=O)c2ccc3ccccc3c2)CC1	-10	-3	7	-8	1.3	7	3482
CC(Cl)=CCn1c(N2CCCC2)nc2c1c(=O)[nH]c(=O)n2C	nt	7	12	nt	8.0	-3	nt
O=C(COc1ccc2ccc(=O)oc2c1)N1CCC(C(=O)O)(c2ccccc2)CC1	-2	nt	nt	-4	3.7	5	5362
COc1ccc(NS(=O)(=O)c2cccc(C(=O)NCC(c3ccc(OC)cc3)N3CCCC3)c2)cc1 (configuration not stated)	-1	-5	-3	-10	1.0	9	?
COC(=O)C1=C(N)Oc2cc(C)n(Cc3cccnc3)c(=O)c2C1c1ccccc1OC (configuration not stated)	-3	11	2	0	-12	-3	3254
Cc1ccc(C2(C)NC(=O)N(CC(=O)NC(C)c3ccccc3)C2=O)cc1 (configuration not stated)	-6	1	-2	-1	0.8	0	5620
CC(=O)c1c(OC(=O)c2ccccc2Br)ccc2c(C)cc(=O)oc12	-1	-2	7	-2	3.0	1	2676
O=C(COC(=O)CNC(=O)c1ccccc1)NC1CCCC1	nt	8	12	-24	3.6	2	5845
COc1cccc(-c2nc(N3CCN(C)CC3)c3ccccc3n2)c1O	13	-2	9	-11	-0.3	29	4014
CCOc1ncccc1C(=O)OCC(=O)c1c[nH]c2ccccc12	nt	3	-1	-12	10	4	7999
CCOc1ccc(NC(=O)Nc2ccccc2C(N)=O)cc1	-1	17	5	-24	3.8	8	2032
CC1=NN(S(=O)(=O)c2ccc(C)cc2)C(=O)c2ccccc2O1	4	10	2	-23	1.2	-1	4063

Not a retest: an excerpt of the list.
SMILES	BJeLR viability	Mtb hypoxia rep	Mtb hypoxia rep growth	PrP 5UTR inh	Sa RN4220 lethal	ugtP null kill	Autofluor counter
CCOc1ccc(NC(=O)Nc2ccccc2C(N)=O)cc1	-1	17	5	-24	3.8	8	2032
CC1=NN(S(=O)(=O)c2ccc(C)cc2)C(=O)c2ccccc2O1	4	10	2	-23	1.2	-1	4063
